# TSHR agonist = agonists of human thyroid stimulating hormone receptor | P16473 | HEK293-CNG-TSHR cells (CNG channel as cAMP sensor), membrane potential dye, cAMP | Potency, µM (highest dose often 57.1 µM), inactives show top-dose activation, hits mostly activators | actives 0.48% (n = 73,000); active = well fitted activation curve of enough size with the parental cells flat; inconclusive = any curve in the parental cells; inactive = parental cells flat and receptor cells flat or falling; further: potency means the concentration at half of the fitted maximal effect; % of control where 0% means no effect; weak receptor curves with flat parental cells got no call and are not listed
# Target sequence (P16473 whole entry, looked up): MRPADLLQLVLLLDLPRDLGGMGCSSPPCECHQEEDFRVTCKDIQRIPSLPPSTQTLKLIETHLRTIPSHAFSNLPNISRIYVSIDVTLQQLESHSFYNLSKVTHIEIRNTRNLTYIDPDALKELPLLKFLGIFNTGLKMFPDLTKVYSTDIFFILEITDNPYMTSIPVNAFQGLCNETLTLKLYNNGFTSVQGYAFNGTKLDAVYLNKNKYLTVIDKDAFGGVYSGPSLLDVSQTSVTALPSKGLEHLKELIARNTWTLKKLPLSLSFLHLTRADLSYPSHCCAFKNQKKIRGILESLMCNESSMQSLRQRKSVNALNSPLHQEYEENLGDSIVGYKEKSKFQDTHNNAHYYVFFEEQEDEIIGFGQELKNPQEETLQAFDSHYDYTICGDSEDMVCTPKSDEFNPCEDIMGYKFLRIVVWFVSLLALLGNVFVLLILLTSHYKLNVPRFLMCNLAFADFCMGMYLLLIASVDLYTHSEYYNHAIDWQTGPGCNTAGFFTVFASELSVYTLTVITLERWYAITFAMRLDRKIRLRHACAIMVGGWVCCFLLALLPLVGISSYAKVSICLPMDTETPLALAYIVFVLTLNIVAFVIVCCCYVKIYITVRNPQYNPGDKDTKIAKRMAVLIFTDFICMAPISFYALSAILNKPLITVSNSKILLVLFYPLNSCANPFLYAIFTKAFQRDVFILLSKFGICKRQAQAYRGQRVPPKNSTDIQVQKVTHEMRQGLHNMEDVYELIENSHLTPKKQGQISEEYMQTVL
#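 HEK 293 cells stably expressing TSHR and a cAMP-gated CNG channel; parental CNG-only cells as counterscreen. Cells preloaded 60 min with membrane potential dye plus 100 uM RO 20-1724, then compound 30 min; fluorescence read at 590 nm.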
# A647 fluor = A647 region autofluorescence. Compound fluorescence, A647 channel (570/671 nm), Tris buffer. max dye-equivalent concentration, M. 59,000 tested, under 10 active. AID 592; active means above 1 µM dye equivalent; inconclusive means 0.1 to 1 µM; inactive means 0.1 µM or less;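 further: values scaled relative to a standard on each plate; highest value over a series up to 38 µM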
#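 Buffer was dispensed, compounds and Alexa 647 standards were pin-transferred, and plates sat 15 min at room temperature. Intensity at 570/671 nm was then converted to dye-equivalent concentration using the plate's A647 standard curve.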
# A488 autofl = compound autofluorescence in A488 spectral region | compound autofluorescence, A488 spectral region, dye equivalency; active compounds read high | max dye equivalency, M | actives 0.1% (n = 59,000) | AID 591; active = above 10 nM dye equivalent; inconclusive = 1 to 10 nM; inactive = 1 nM or less; about half of its hits are not listed in these tables;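 further: highest value over a series up to 38 µM; compound alone in buffer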
#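 Compounds pin-transferred into 100 mM Tris buffer, pH 8.0, incubated 15 min at room temperature, then imaged with 480 nm excitation/540 nm emission filters. Fluorescence converted to Alexa 488 dye-equivalent concentration via an on-plate six-point A488 standard curve.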
# Resorufin autofl = compound fluoresces in the resorufin spectral region; Compound fluorescence, resorufin region 547/598 nm, buffer; active compounds read high; max dye-equivalent concentration, M; actives 0.04% (n = 59,000); active = above 10 nM dye equivalent; inconclusive = 1 to 10 nM; inactive = 1 nM or less; a few of its hits are not listed in these tables; further: highest value over a series up to 38 µM
#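 Dye-equivalent concentration values derive from comparing each well's 547/598 nm fluorescence against resorufin standards included on every plate. Incubation was 15 min at room temperature in 100 mM Tris, pH 8.0.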
# AID923 = qHTS Assay for Allosteric/Competitive Inhibitors of Caspase-1: Spectroscopic Profiling in AFC Spectral Region; compound fluorescence, AFC spectral region (405/520 nm); almost no hit is shown here; Potency, µM (highest dose often 57.5 µM), inactives show at the top dose fluorescence increase, usual class: activators; actives 1.1% (n = 75,000); AID 923, 2007; active means well fitted activation curve with a large enough effect; inconclusive means small, poorly fitted or top-dose-only effect;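 further: potency means the concentration at half of the fitted maximal effect; 0% is about no effect; scaled to a free AFC standard on each plate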
#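 Titrations up to 57 uM read every 20 sec for 3 min (405/520 nm) with 50 nM caspase 1 and 5 uM Ac-WEHD-AFC, pH 7.5 HEPES buffer. Fluorescence-vs-time intercept gave baseline, scaled against on-plate AFC standard.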
# * = called active by the depositor; i = inactive; u = inconclusive; x = no result given; [ ] = another dose, or the depositor's remark.
SMILES,TSHR agonist,A647 fluor,A488 autofl,Resorufin autofl,AID923
COc1ccc(C2CC(c3cccc(OC)c3)n3nc(N)nc3N2)cc1 (configuration not stated),4%,x,x,x,-1.6%
CN(c1cccc(NC(=O)c2ccccc2N(C)S(C)(=O)=O)c1)S(C)(=O)=O,21%,4.2e-08,i,i,-0.8%
Cn1c(=O)c2c(nc(NC3CCCCC3)n2CC(=O)C23CC4CC(CC(C4)C2)C3)n(C)c1=O,-31%[inhibitor],1e-09,i,i,0.1%
CC(=O)Nc1ccc(Nc2ncnc3c2cnn3-c2ccccc2)cc1,7%,x,x,x,1.3%
O=C(Nc1ccc(F)cc1F)c1ccco1,-3%,8.4e-09,i,i,-0.5%
O=C(CC1Nc2ccccc2NC1=O)NC1CCCCC1 (configuration not stated),u,1.1e-08,i,i,5.5%
Cc1nc(NCCCn2ccnc2)c2oc3ccccc3c2n1,9%,1.8e-08,i,i,-0.1%
O=C(NC1CS(=O)(=O)CC1NCc1ccccc1)c1ccccc1 (configuration not stated),-3%,5.6e-09,i,i,3.2%
CCOC(=O)Cn1c(=O)oc2cc(S(=O)(=O)N3CCC(N4CCCCC4)CC3)ccc21,u,x,x,x,2.8%
Cc1ccc(NC2=NCC(=O)N2Cc2ccc3c(c2)OCO3)c(C)c1,8%,1e-09,i,i,-0.4%
O=C1c2ccccc2C(=O)N1CNc1ccccc1,-1%,1.6e-08,i,i,1.4%
Cc1cccc(NC(=O)c2cnc3sccn3c2=O)n1,-3%,x,x,x,-3.2%
COc1cc(NC2c3ncccc3C(=O)N2Cc2ccco2)cc(OC)c1 (configuration not stated),-5%,1e-09,i,i,0.0%
CC(C)COC(=O)c1nnsc1NC(=O)Nc1ccccc1,1%,2e-09,i,i,3.6%
CNc1nn(-c2cccc(Cl)c2)nc1N,-25%,2.7e-08,i,i,-0.1%
CC(=O)N(C(C)=O)c1cccc2c(N(C(C)=O)C(C)=O)cccc12,-2%,x,x,x,4.3%
CC(=O)c1ccc2c(c1)Nc1ccccc1S2,-12%[11.4 µM],6.8e-09,i,i,4.8%
COC(=O)c1cccc(Oc2nc3c(c(=O)n(C)c(=O)n3C)n2Cc2ccc(C)cc2)c1,x,1.9e-08,i,i,1.6%
CN1CCN(c2ccc(NC(=O)Cc3ccccc3)cc2)CC1,-2%,1e-09,i,i,0.2%
CC(C)(C)c1ccc(S(=O)(=O)NCCc2ccncc2)cc1,2%[11.4 µM],1e-09,i,i,-0.9%
CCOC(=O)c1c(C)[nH]c(C(=O)Cn2nnc(-c3ccc(Cl)cc3)n2)c1C,4%,1e-09,i,i,2.1%
CCc1c2c(nc3ccc(OC)cc13)OC(CC)C2 (configuration not stated),u,x,x,x,0.4%
Cc1ccc(N2CC(C(N)=O)CC2=O)cc1C (configuration not stated),0%,2.5e-08,i,i,0.1%
O=C(NCCCn1ccnc1)NC(C(F)(F)F)C(F)(F)F,9%,1e-09,i,i,-1.5%
CCCCCc1c(C)nc(N2CCc3ccccc32)[nH]c1=O,1%,2.6e-09,i,i,-1.4%
COc1cc(CN(C)CC(=O)c2[nH]c(C)c(C(C)=O)c2C)ccc1OC(F)F,u,3.4e-09,i,i,0.7%
CC(C)Sc1nc(N2CCOCC2)c2c(c1C#N)CC(C)(C)SC2,19%,2.8e-09,i,i,4.2%
CS(=O)(=O)Nc1cccc(-c2nccc(Nc3ccc(F)cc3)n2)c1,-6%,2.7e-08,i,i,0.7%
COc1cccc(N2CCN(C3CC(=O)N(c4ccc(F)c(Cl)c4)C3=O)CC2)c1 (configuration not stated),-1%,1.9e-08,i,i,-6.2%
O=C(COC(=O)CCOc1ccccc1)NCc1ccco1,-3%,1e-09,i,i,1.2%
O=C(CS(=O)CC(=O)N(CC(=O)NC1CCCC1)C1CCCC1)Nc1ccc(F)cc1 (configuration not stated),-4%,2.6e-08,i,i,-0.3%
NC(=O)NC(Cc1ccccc1)C(=O)NCC1(N2CCCCC2)CCCCC1 (configuration not stated),1%,7.9e-09,i,i,-0.9%
O=C(Nc1ccc2c(c1)OCO2)C1CCN(S(=O)(=O)c2cccc3cccnc23)CC1,-2%,1.3e-08,i,i,0.8%
S=c1[nH]c2ccc(Cl)cc2[nH]1,u,2.2e-08,i,i,-1.2%
CCSc1nc2c(c(=O)n1CC)SC(C)C2 (configuration not stated),13%,2e-08,i,i,-1.6%
COc1cc(C2c3[nH]c4ccccc4c3CC3C(=O)N4C(Cc5c([nH]c6ccccc56)C4c4cc(OC)c(OC)c(OC)c4)C(=O)N32)cc(OC)c1OC (configuration not stated),-8%[11.4 µM],x,x,x,-3.1%[11.5 µM]
COc1ccc(CNC(=O)c2cccc(N3CCCC3=O)c2)cc1,6%,1e-09,i,i,1.3%
CCn1c(=S)sc2c(=O)n(-c3ccccc3)c(SC)nc21,u,6.3e-09,i,i,-0.9%
COc1ccc(C(=O)CSc2nnc(Cn3cnc4ccccc43)o2)cc1,u,1e-09,i,i,-1.7%
COc1cccc(C(=O)N2CCCC(c3nc(-c4cccs4)no3)C2)c1 (configuration not stated),-3%[11.4 µM],2.5e-09,i,i,-0.9%

# Complete entries as entered above:
# O=C(Nc1ccc(F)cc1F)c1ccco1 is listed with TSHR agonist = -3%; A647 fluor = 8.4e-09; A488 autofl = i; Resorufin autofl = i; AID923 = -0.5%
# Cc1cccc(NC(=O)c2cnc3sccn3c2=O)n1 is listed with TSHR agonist = -3%; A647 fluor = x; A488 autofl = x; Resorufin autofl = x; AID923 = -3.2%

# Returning to the listing, starting three compounds before the break.
SMILES,TSHR agonist,A647 fluor,A488 autofl,Resorufin autofl,AID923
CCn1c(=S)sc2c(=O)n(-c3ccccc3)c(SC)nc21,u,6.3e-09,i,i,-0.9%
COc1ccc(C(=O)CSc2nnc(Cn3cnc4ccccc43)o2)cc1,u,1e-09,i,i,-1.7%
COc1cccc(C(=O)N2CCCC(c3nc(-c4cccs4)no3)C2)c1 (configuration not stated),-3%[11.4 µM],2.5e-09,i,i,-0.9%
COc1cc2c(cc1OC)-c1cc(NC3CCCCC3)nc(=O)n1CC2,x,9.5e-09,i,i,0.5%
CCn1ncc(Cl)c1C(=O)Nc1ccncc1,-3%,1.4e-09,i,i,0.4%
N#CC1=C2SCCN2C(=O)C(C#N)C12CCCCC2 (configuration not stated),-8%,2.8e-08,i,i,-0.5%
COc1ccc2c(c1OC)C(=O)N(C(C)C(=O)O)C2=O (configuration not stated),11%,1e-09,i,i,0.6%
CC(C)[C@H](NC(=O)OC(C)(C)C)[C@@H](O)CC(=O)OC(C)(C)C,-8%[11.4 µM],x,x,x,0.8%[11.5 µM]
O=C(CSc1nnc(-c2cccnc2)n1Cc1ccco1)N1c2ccccc2Sc2ccccc21,u,1.8e-08,i,i,-3.7%
COc1cccc(CNC(=O)CN(C)S(=O)(=O)c2cnc[nH]2)c1,-3%,2.4e-08,i,i,-0.1%
Cc1noc(C)c1CSc1nnc(-c2cc(Cl)ccc2Cl)n1N,6%,7e-09,i,i,-0.5%
c1ccc(Cn2nnc3c(Nc4ccc5c(c4)OCO5)nc(C4CC4)nc32)cc1,-9%,1.9e-08,i,i,3.2%
CCn1c(SCc2ccc(C)cc2)nnc1-c1cnccn1,u,3.5e-09,i,i,-1.9%
N=c1ccn(Cc2cccc(Cl)c2)cc1,0%[11.4 µM],3.5e-09,i,i,1.4%
Cc1ccccc1N1CCN(C(=O)CN2C(=O)c3ccccc3C2=O)CC1,10%,x,x,x,3.1%
COc1cccc(-c2nc3cc(C)ccc3o2)c1,12%,x,x,x,4.6%
CN(C)CCCCNC(=O)c1ccc(-n2c(=O)c(=O)[nH]c3ccccc32)cc1,-5%,x,x,x,-3.4%
N#Cc1ccccc1NC(=O)COC(=O)c1ccc(S(=O)(=O)N2CCCC2)cc1,1%,2.6e-08,i,i,-1.6%
CCOCCCNC(=O)CN1CCN(c2ccc(F)cc2)CC1,-2%,1.7e-08,i,i,1.4%
CCOC(=O)N1CCN(Cc2nc(-c3ccc(C)cc3)no2)CC1,9%,3.4e-08,i,i,-1.2%
COc1ccc(S(=O)(=O)Nc2ccc(NC(C)=O)cc2)cc1OC,3%,1.9e-08,i,i,-0.4%
CCC(=O)CC(NC(=O)OC)c1ccc(F)cc1 (configuration not stated),2%[11.4 µM],x,x,x,0.6%[11.5 µM]
Cc1ncc2c(c1OC(=O)c1ccccc1)COC(C)(C)OC2,9%,2.4e-08,i,i,-0.1%
COC(=O)c1ccc(C(NC(=O)OCc2ccccc2)/C(=C/[C@@H](C)C(=O)NCc2ccc(-c3ccccc3)cc2)c2cccnc2)cc1 (some centres not stated),4%,x,x,x,-1.4%
O=C(Nc1nc2c(Cl)cccc2s1)c1ccc(Br)o1,u,1.9e-08,i,i,3.8%
CN(C)S(=O)(=O)c1ccc(C(=O)Nc2ccc(OCC(=O)N3CCOCC3)cc2)cc1,2%,x,x,x,0.5%
C=CCNc1oc(COc2ccc(C)cc2)nc1C#N,u,x,x,x,0.0%
Cc1csc(SCC(=O)Nc2c(C)n(C)n(-c3ccccc3)c2=O)n1,3%,4.6e-08,i,i,1.1%
O=c1c2c(nc3nc(SCc4ccccc4)[nH]n13)CCC2,15%,4.5e-09,i,i,0.1%
Brc1ccccc1-c1nnc(COc2ncnc3c2cnn3-c2ccccc2)o1,u,1e-09,i,i,0.6%
CC(C)(O)C#Cc1ccccc1C(=O)NC(CC(N)=O)C(=O)O (configuration not stated),6%,2.5e-08,i,i,-2.7%
COc1cccc(-c2cncnc2NCc2cccc(C)c2)c1,u,1e-09,i,i,2.1%
CN(C)S(=O)(=O)c1cccc(C(=O)C2=C3SC=C(c4ccccc4)N3CC2)c1,-9%,1e-09,i,i,0.4%

# A different layout for part of the listing above.
# Fields: TSHR agonist | A647 fluor | A488 autofl | Resorufin autofl | AID923
O=C(Nc1nc2c(Cl)cccc2s1)c1ccc(Br)o1
    u | 1.9e-08 | i | i | 3.8%
CN(C)S(=O)(=O)c1ccc(C(=O)Nc2ccc(OCC(=O)N3CCOCC3)cc2)cc1
    2% | x | x | x | 0.5%
C=CCNc1oc(COc2ccc(C)cc2)nc1C#N
    u | x | x | x | 0.0%
Cc1csc(SCC(=O)Nc2c(C)n(C)n(-c3ccccc3)c2=O)n1
    3% | 4.6e-08 | i | i | 1.1%

# Following part.
SMILES,TSHR agonist,A647 fluor,A488 autofl,Resorufin autofl,AID923
CN1C(=C2C(=O)OC(C)(C)OC2=O)Sc2ccccc21,-3%[11.4 µM],2.6e-08,i,i,-0.3%
Cc1nc(NC(=O)c2cc3c(s2)CCCCC3)sc1C(=O)N(C)C,-19%,1.8e-08,i,i,-0.3%
CC(C)C(NS(=O)(=O)c1ccc(Br)s1)C(=O)O (configuration not stated),-4%,1e-09,i,i,-0.4%
CC(C)NC(=O)Cn1nnc(-c2ccc(Cl)cc2)n1,2%,3.6e-08,i,i,-0.8%
O=C(O)CNC1=NCCC1,3%,5.2e-09,i,i,0.7%
COc1ccc(C(=O)NCC2OCCc3ccccc32)c(O)c1 (configuration not stated),x,4.1e-08,i,i,-0.1%
O=C(O)CCC(=O)NC1CCCCCCC1,-5%,1e-09,i,i,-3.5%
c1ccc(-n2nnnc2SCc2cn3ccccc3n2)cc1,u,1.6e-08,i,i,2.7%
COc1ccc(N=c2oc3c(OC)cccc3cc2C(=O)NCc2ccco2)cc1OC,-16%,1.3e-09,i,i,0.4%
COc1ccc(-c2nc(-c3ccc(NC(=O)c4ccc(Br)o4)cc3)no2)cc1OC,u,1e-09,i,i,0.2%
CC1CC(C)CN(CC(=O)Nc2ccc(S(N)(=O)=O)cc2)C1 (configuration not stated),11%,4.5e-09,i,i,0.7%
Cc1cc(NS(=O)(=O)c2ccc(NC(=O)C(C)N3C(=O)c4ccccc4C3=O)cc2)nc(C)n1 (configuration not stated),-10%,1e-09,i,i,-2.1%
CCCC1=C(C(=O)OCC)C(c2ccc(O)cc2)n2ncnc2N1 (configuration not stated),-16%,1e-09,i,i,-1.2%

# Source: PubChem BioAssay

# The list is partial; count on the stated rates, not on these rows.
